# NPYLR7 agonist: agonists of mosquito NPYLR7 receptor, primary screen, cell-based, Aedes aegypti, calcium fluorescence, mosquito biting behavior | actives 0.15% (n = 270,000) | HEK293T NPYLR7/Galpha15, GCaMP6s calcium fluorescence | activation, % at 10 µM | AID 1259423, 2018 | Aedes aegypti neuropeptide Y-like receptor 7 (NPYLR7); in the data active = activation above about 40%;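 also: 0% = vehicle and 100% = reference agonist at the receptor; some compounds past the cut are filed as inactive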
# NPYLR7 agonist max-min: second read-out of NPYLR7 agonist, no call of its own (marks repeat the call); activation, %; measured here: Max-Min RFU normalised activation; some inactives read as strong as hits;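 span of the calcium signal over five minutes; 0% = vehicle and 100% = native peptide agonist; compound fluorescence can raise it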
# The depositor's hits bear a star. Some of the compounds tested; the hit share may differ from the screen's.
SMILES,NPYLR7 agonist,NPYLR7 agonist max-min
O=C1/C(=C\c2cccs2)CN(CC2CC2)C/C1=C\c1cccs1,5,4
Cc1ccc2nc(C)c(C(=O)Nc3ccc(S(=O)(=O)N(C)C)cc3)cc2c1,2,0
COc1ccc2[nH]cc(C3CCN(S(=O)(=O)c4ccc(Br)cc4OC(F)(F)F)CC3)c2c1,28,14
CC(C)COC(=O)c1nc(Cl)c(Cl)c(N)c1Cl,-1,-10
CCOC(=O)N1CCN(C(=O)CSc2ncnc3ccccc23)CC1,2,38
Cc1c(C)n2c3c(=O)n(C)c(=O)n(C)c3nc2n1-c1ccccc1,16,10
CC1(C)NC(=O)N(CC(Br)CBr)C1=O (stereo not drawn),2,30
CC(C(=O)Nc1cccc2ccccc12)N1CCc2ccc(O)cc2CC1 (stereo not drawn),2,3
O=S(=O)(NCc1nnnn1C1CCCCC1)c1ccc(Br)cc1,-2,-2
COc1ccccc1CNC(=O)c1cc2c(=O)n(C)c(=O)n(C)c2n1Cc1ccccc1,-1,-2
O=S(=O)(c1ccc(CN(CCO)c2ccccc2)cc1)C(F)F,4,4
O=C(Nc1ccc(Oc2ccccc2)cc1)c1cc2c(=O)n3ccccc3nc2s1,2,3
Cc1ccc(C(=O)N2CCN(Cc3cc(=O)n4ccsc4n3)CC2)c(C)c1,2,1
Cc1ccc(OCC(=O)Nc2cc(-c3ccco3)nn2-c2nc(C)c(C)c(=O)[nH]2)cc1,1,-1
O=C(Nc1cccc2ccccc12)c1c(NC(=O)C(F)(F)F)sc2c1CCCC2,5,3
Cc1cccc(C(=O)Nc2cccc(NC(=O)C3COCCO3)c2)c1 (stereo not drawn),2,0
COc1ccc(C(O)=C2C(=O)C(=O)N(c3ccccn3)C2c2ccc(Cl)cc2)cc1 (stereo not drawn),13,18
OCC(O)CN1CCN(Cc2csc3ccccc23)CC1 (stereo not drawn),-1,0
CC(=O)NC1CCCN(C(=O)c2cnn(Cc3ccccc3)c2)C1 (stereo not drawn),1,1
Clc1ccc2c(NCCc3ccccc3)nc(-c3cccs3)nc2c1,5,15
Cc1ccccc1-n1c(SC(C)C(N)=O)nnc1-c1cccnc1 (stereo not drawn),-2,-3
Cc1c(CNC(C)c2ccc(F)cc2)cc(C#N)n1C (stereo not drawn),-2,-1
Cc1cccc(OCCNC(=O)c2cc(-n3cnnc3)ccc2Cl)c1,7,6
CCc1nc2ccc(C(=O)N3CCN(S(=O)(=O)CC)CC3)cn2c1N(C)CCCc1ccccc1,18,8
c1ccc(CN2CCN(CCNc3nc(CN4CCOCC4)nc4sc5c(c34)CCC5)CC2)cc1,9,8
Cc1ccc(SC(C)C(=O)N(C)Cc2snnc2C)cc1 (stereo not drawn),2,18
CC(C)C1CN(C(=O)c2cc(=O)[nH]c3ccccc23)CCC(=O)N1CC1CC1 (stereo not drawn),6,4
CC(C)[C@@H]1CC[C@@H](C)C[C@H]1OCC(=O)N1CCN(Cc2cc(=O)c(OCc3ccc(F)cc3)co2)CC1,2,-3
COc1ccc(OC)c(-c2cccc(-c3ccc(NC(=O)C4CCCCC4)cc3)n2)c1,-3,-5
COCc1nn2c(nnc3c(=O)n(CCO)ccc32)c1-c1ccccc1,-1,-2

# Part of the list above, with two lines to a compound:
# Below each compound – NPYLR7 agonist | NPYLR7 agonist max-min
- CC1(C)NC(=O)N(CC(Br)CBr)C1=O (stereo not drawn)
→ 2 | 30
- CC(C(=O)Nc1cccc2ccccc12)N1CCc2ccc(O)cc2CC1 (stereo not drawn)
→ 2 | 3
- O=S(=O)(NCc1nnnn1C1CCCCC1)c1ccc(Br)cc1
→ -2 | -2
- COc1ccccc1CNC(=O)c1cc2c(=O)n(C)c(=O)n(C)c2n1Cc1ccccc1
→ -1 | -2
- O=S(=O)(c1ccc(CN(CCO)c2ccccc2)cc1)C(F)F
→ 4 | 4

# Seven compounds already listed, arranged by SMILES length, ascending:
SMILES,NPYLR7 agonist,NPYLR7 agonist max-min
CC1(C)NC(=O)N(CC(Br)CBr)C1=O (stereo not drawn),2,30
CC(C)COC(=O)c1nc(Cl)c(Cl)c(N)c1Cl,-1,-10
Cc1ccc(SC(C)C(=O)N(C)Cc2snnc2C)cc1 (stereo not drawn),2,18
O=S(=O)(NCc1nnnn1C1CCCCC1)c1ccc(Br)cc1,-2,-2
Cc1cccc(OCCNC(=O)c2cc(-n3cnnc3)ccc2Cl)c1,7,6
COCc1nn2c(nnc3c(=O)n(CCO)ccc32)c1-c1ccccc1,-1,-2
CC(C)C1CN(C(=O)c2cc(=O)[nH]c3ccccc23)CCC(=O)N1CC1CC1 (stereo not drawn),6,4

# (cont.)
SMILES,NPYLR7 agonist,NPYLR7 agonist max-min
O=C(c1ccc([N+](=O)[O-])o1)N(Cc1ccccn1)c1nc2ccccc2s1,-4,-12
CC(C)CC(=O)N1CCCC(Nc2ccccc2)C1 (stereo not drawn),1,8
Cc1cc(C)n(CCNC(=O)Cc2nc(C)sc2C)c(=O)n1,-5,-5
CCCCCCCCCCCCCCSCC(=O)O,5,-27
NC(=O)Nc1ccc(CNC(=O)C2(c3ccc(F)cc3)CCOCC2)cc1,1,1
Cc1ncsc1CCN(C)c1nc(-c2cccnc2)nc2c1cnn2C,-1,-1
COCC1(C(=O)NCc2nncn2C2CCCCC2)CCC1,-2,-14
Cc1ccc(N2C(=O)/C(=C/c3ccc(-c4ccc(Cl)c(Cl)c4)o3)C=C2c2ccccc2)c(C)c1,-1,7
CCCCC(CC)C(=O)Nc1c(-c2ccc(C(F)(F)F)cc2)nc2ccccn12 (stereo not drawn),-4,-2
COc1cc(C=C(C#N)S(=O)(=O)c2ccc(F)cc2)cc(OC)c1OC,11,14
N#Cc1cnc(SCC(=O)N(C2=CCCCC2)C2CC2)nc1N,-1,8
CCOC(=O)c1nn(-c2ccccc2)c(=O)cc1NCc1cccc(OC)c1,7,0
Cc1c(C(=O)NCCC#N)sc(=O)n1CC(=O)N(C)C,5,7
O=c1[nH]c(CSc2nnnn2C2CCCC2)nc2ccc(Cl)cc12,0,4
Cc1cc(C)n(CC(C)n2cnnc2)n1 (stereo not drawn),5,4

# Look-ups from the list.
# NPYLR7 agonist result of NC(=O)Nc1ccc(CNC(=O)C2(c3ccc(F)cc3)CCOCC2)cc1 stands at 1
# NPYLR7 agonist max-min result of Cc1ncsc1CCN(C)c1nc(-c2cccnc2)nc2c1cnn2C stands at -1

# Returning to the listing with the 7 entries that preceded the break.
SMILES,NPYLR7 agonist,NPYLR7 agonist max-min
CCCCC(CC)C(=O)Nc1c(-c2ccc(C(F)(F)F)cc2)nc2ccccn12 (stereo not drawn),-4,-2
COc1cc(C=C(C#N)S(=O)(=O)c2ccc(F)cc2)cc(OC)c1OC,11,14
N#Cc1cnc(SCC(=O)N(C2=CCCCC2)C2CC2)nc1N,-1,8
CCOC(=O)c1nn(-c2ccccc2)c(=O)cc1NCc1cccc(OC)c1,7,0
Cc1c(C(=O)NCCC#N)sc(=O)n1CC(=O)N(C)C,5,7
O=c1[nH]c(CSc2nnnn2C2CCCC2)nc2ccc(Cl)cc12,0,4
Cc1cc(C)n(CC(C)n2cnnc2)n1 (stereo not drawn),5,4
Cc1ccc(C(=O)Cn2cnc3c2c(=O)n(C)c(=O)n3C)s1,2,4
Cc1cccc(-c2cnc(C(O)c3cc(C)cc(C)c3)[nH]2)c1 (stereo not drawn),-3,-3
CCc1cc(Oc2ccc(C(C)=O)cc2)nc(SCc2ccccc2C#N)n1,10,17
COc1ccc(C(C)(C)NC(=O)CC2C(=O)NCCN2CC=C(C)C)cc1 (stereo not drawn),-2,-6
Cc1cc2sc(NC(=O)C3CCCCC3)nc2cc1N,-4,-18
Cn1nc(C(F)(F)F)c2cc(C(=O)N3CCCC(c4ccn[nH]4)C3)sc21 (stereo not drawn),-2,-6
CN(CCN1CCCC1CCCO)c1ccccc1 (stereo not drawn),2,0
Cc1nc(-n2nc(C3CC3)cc2NC(=O)c2ccco2)[nH]c(=O)c1C,0,-2
CCSc1n[nH]c(-n2ccc3nc4ccn(CCC5=CCCCC5)c(=O)c4cc3c2=O)n1,5,9
Cc1cccc(Oc2ccccc2CN)c1,25,20
O=C(NC(Cc1ccccc1)C(=O)N1CCCC1)C1CC(c2cccc(F)c2)=NO1 (stereo not drawn),25,26
CCOc1cccc2c1OC[C@@H]1CN(CCO)C(=O)CCN(C(=O)CC(C)(C)C)[C@H]21,0,3
CC1(C(=O)Nc2ccc(Cl)c(Cl)c2)CCN1CCOc1ccccc1 (stereo not drawn),10,5
CC(=O)NC(CC(=O)N(CC#N)c1cccc(F)c1)c1ccccc1 (stereo not drawn),3,2
CCCCC(C1=CCCN(C)C1)N(C)C(=O)c1cccs1 (stereo not drawn),0,1
COc1ccc(S(=O)(=O)NC(=O)C2(C)CCN2C(=O)Cc2ccc(C(C)(C)C)cc2)cc1OC (stereo not drawn),5,5
CC/C=C/CC(=O)N(Cc1ccncc1)C(C)CC (stereo not drawn),3,3
O=C(NCCNC(=O)[C@H]1CCCN1S(=O)(=O)c1ccc(Br)cc1)c1ccc(F)cc1,27,29
Cn1c(-c2ccc(-c3nccn3CCc3cnc[nH]3)o2)nc2ccccc21,1,-4
COc1ccc(NC(=O)CSc2nnc(CNC(=O)c3ccco3)n2-c2ccccc2OC)cc1,1,1
COc1ccc(OC)c(C2SCCN2C(=O)NC2CCCCC2)c1 (stereo not drawn),-5,-5
CC(C)n1c(=O)c(C(=O)N2CCOCC2)cc2cccnc21,0,0
Cc1ccc(CN2C(=O)C(C)(C)ON=C2c2ccco2)cc1,10,1
CCCN(Cc1ccc(OC)cc1)C(=O)c1ccc2nccnc2c1,0,-5
Cc1ccc(S(=O)(=O)Cc2ncc(C(C)C)o2)c(C)c1,5,3
c1cnn(-c2ccc(CSc3nnnn3C3CC3)cc2)c1,12,11
CCN(CC)S(=O)(=O)c1ccc(OC)c(N2CCN(C(=O)c3cc(F)ccc3F)CC2)c1,21,21
Cc1ccccc1N1CCN(C2CCCN(C(=O)c3ccc(C(F)(F)F)cc3)C2)CC1 (stereo not drawn),0,6
CC1(C)S[C@@H]2[C@H](NC(=O)C(C(=O)O)c3ccsc3)C(=O)N2[C@H]1C(=O)O (stereo partly drawn),19,3
Cc1ccnc(SCc2cc(=O)n3c4ccccc4nc3n2Cc2ccccc2)n1,3,1
O=C(Nc1cccc(-n2cccn2)c1)C1CCCN(Cc2cccc(F)c2F)C1 (stereo not drawn),9,2
COc1ccccc1CN(Cc1ccccc1)Cc1nc(C(=O)NCc2ccncc2)co1,11,15
CC(C)(C)c1ccc(NC(=O)c2cccnc2Oc2cccc([N+](=O)[O-])c2)cc1,-9,-11
CCN(CC)c1onc(-c2ccccc2)c1CN(CCOC)CC(O)COC(C)C (stereo not drawn),4,15
COCc1c(C(=O)N[C@@H]2C[C@@H](C(=O)OC)N(C)C2)noc1C,5,4
CCOC(=O)CCC(=O)Nc1cccc(-c2cccc(-c3ccccc3OC)n2)c1,-9,-3
COc1ccc(-c2cn3nc(CNc4ccc5c(c4)OCO5)n4c3c2CCCC4)cc1,4,2
Cc1ccc(Cc2nnc(N3CCCCC3)[nH]c2=O)cc1,15,11
CCN(CC)C(=O)Oc1ccc2c(ccn2Cc2cc(C)ccc2C)c1-c1cc(F)cc(F)c1,10,2
O=C1c2ccccc2C(=O)N1CCOc1ccc(Cl)c2ccccc12,30,14
CCOc1ccccc1N1CCN(C(=O)c2cc(-c3cccc(OC)c3)nn2-c2cc(C)ccc2C)CC1,0,13
C=CCNC(=O)Cn1c(CO)cnc1SCc1cccc(F)c1,8,3
Cc1cc(C(F)(F)F)nc(CCNC(=O)c2cnn3c2CCCC3)n1,2,3
Cc1nc(C(C)n2cnc3ccccc32)n(-c2ccc3c(c2)OCO3)n1 (stereo not drawn),12,9
Cc1cccc(-n2nc(-c3ccc(C)c(C)c3)cc2C(=O)N2CCC(Cc3ccccc3)CC2)c1,-9,-2
COc1ccc(O)c(C(C)NC(=O)C(=O)Nc2ccc(F)cc2C)c1 (stereo not drawn),11,10
COc1cc(Cl)c(NC(=O)CCSc2ccccc2F)cc1OC,-3,-3

# Assay outcomes deposited in PubChem by Fisher Drug Discovery Resource Center.
